# High-throughput results (PubChem BioAssay)
# YopH PTP inh: YopH tyrosine phosphatase inhibitors, primary screen, biochemical, fluorescence Ex485/Em525. YopH tyrosine phosphatase [Yersinia enterocolitica]. inhibition, %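 (about 10 µM by stock and volumes)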. hit rate 0.16% among 140,000;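 active means inhibition of 50% or more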;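 further: controls were vehicle for no effect and minimum signal wells for full effect; inactives centre near -20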
# Arbovirus anti: antivirals against arbovirus infection, primary screen, cell-based, full library, 10K replicate subset | inhibition, % at 10 µM | arbovirus infection cell-based antiviral screen | AID 1251, 2008 | hit rate 0.37% among 200,000;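 active means inhibition from about 30%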;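 further: bluetongue infection of BSR cells; cell survival read as ATP light after 72 h; 0% = infected wells without compound and 100% = uninfected wells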
# Mtb bLac sens: beta-lactam sensitization of Mtb H37Rv, H37Rv; M. tuberculosis H37Rv growth with meropenem, percent inhibition; hits of this screen are not shown here; inhibition, % at 25 µM; hit rate 0.27% among 330,000;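 active means about 74% or more and at least 40 points above the plate without the antibiotic, then above 30% in a dose series; inconclusive means first-round hits that could not be retested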;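 further: growth measured after seven days incubation then overnight dye step; 0% = bacteria only wells and 100% = bacteria with antibiotic; twin plates without the antibiotic show which effects depend on it; some results filed as inactive read as strong as hits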
# RecA intein inh: Mtb RecA intein splicing inhibitors, primary screen, biochemical, fluorescence, HTS | Protein RecA (Mycobacterium tuberculosis (strain ATCC 25618 / H37Rv)), P9WHJ3 | cell-free RecA intein splicing | inhibition, %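 (about 9 µM by stock and volumes)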 | hit rate 0.75% among 290,000; in the data active means inhibition above about 30%; inconclusive means no clear call, values can overlap the other calls;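 further: 0% = vehicle wells and 100% = reference inhibitor control wells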
# Target sequence (P9WHJ3 whole entry, looked up): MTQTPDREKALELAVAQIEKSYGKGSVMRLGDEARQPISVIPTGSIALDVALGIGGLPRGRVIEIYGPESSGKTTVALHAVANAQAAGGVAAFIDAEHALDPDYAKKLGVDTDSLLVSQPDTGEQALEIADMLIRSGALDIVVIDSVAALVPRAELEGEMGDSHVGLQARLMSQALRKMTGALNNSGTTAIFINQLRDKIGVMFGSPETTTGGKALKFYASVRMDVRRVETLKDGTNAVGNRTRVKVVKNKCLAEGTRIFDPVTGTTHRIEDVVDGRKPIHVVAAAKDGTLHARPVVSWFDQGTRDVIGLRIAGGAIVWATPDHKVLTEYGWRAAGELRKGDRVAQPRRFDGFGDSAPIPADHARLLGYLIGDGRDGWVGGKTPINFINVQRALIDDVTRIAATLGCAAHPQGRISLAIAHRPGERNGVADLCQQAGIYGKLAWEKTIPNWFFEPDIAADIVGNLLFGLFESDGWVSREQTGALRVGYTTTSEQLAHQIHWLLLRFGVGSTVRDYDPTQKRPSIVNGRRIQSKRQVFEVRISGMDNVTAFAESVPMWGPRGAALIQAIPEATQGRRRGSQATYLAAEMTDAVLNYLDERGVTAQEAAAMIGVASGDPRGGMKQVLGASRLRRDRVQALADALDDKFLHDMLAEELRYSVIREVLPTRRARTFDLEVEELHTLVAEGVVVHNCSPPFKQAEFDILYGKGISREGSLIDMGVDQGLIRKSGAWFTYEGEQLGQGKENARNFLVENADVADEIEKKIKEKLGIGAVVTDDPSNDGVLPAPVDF
# Mtb H37Rv: M. tuberculosis H37Rv growth inhibitors, H37Rv strain (AID 1626); M. tuberculosis H37Rv growth inhibition; higher % means a stronger effect; inhibition, % at 10 µM, or IC50 in µM where a hit was titrated; hit rate 0.95% among 220,000;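 active means confirmed in a dose series; inconclusive means inhibition above 80% but not taken into the dose series; inactive means below 80% or under 30% at every dose of the series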;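 further: bacteria incubated seven days before Alamar blue readout; 0% = bacteria only wells and 100% = bacteria with antibiotic wells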
# Arbovirus anti repeat: further read-out of Arbovirus anti, marked with its call; inhibition, %; measured here: 10K subset replicate screen; many hits read low in the repeat;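 first of two repeat runs on a subset; 0% = infected and 100% = uninfected wells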
# Active calls of the source: *; ? = inconclusive; . = no result given; & = joins results of further samples. Only part of the results is shown. The share of hits here may be higher or lower than overall.
# Sample of the layout:
SMILES,YopH PTP inh,Arbovirus anti,Mtb bLac sens,RecA intein inh,Mtb H37Rv,others
COc1ccc(CC(NC(C)=O)C(=O)NC2CCN(C(=O)Nc3ccc(Cl)cc3)CC2)cc1OC (stereo unspecified),2,0,-5,-0.5,-4%,
COc1ccccc1C1c2[nH]c3ccccc3c2CCN1Cc1cnc(C)s1 (stereo unspecified),.,1,.,-18,6%,

# All compounds of this part, from the start:
SMILES,YopH PTP inh,Arbovirus anti,Mtb bLac sens,RecA intein inh,Mtb H37Rv,others
COc1ccc(CC(NC(C)=O)C(=O)NC2CCN(C(=O)Nc3ccc(Cl)cc3)CC2)cc1OC (stereo unspecified),2,0,-5,-0.5,-4%,
COc1ccccc1C1c2[nH]c3ccccc3c2CCN1Cc1cnc(C)s1 (stereo unspecified),.,1,.,-18,6%,
O=C(NCc1ccc(F)cc1)C1(c2cccs2)CCOCC1,-8,0,-1,-2.2,-5%,
COc1ccc(C(=O)NCCCOC(=O)c2ccc(OC)cc2)cc1,.,.,-1,-0.5,.,
COCCn1c(N)c(N(Cc2ccccc2)C(=O)CN2C(=O)NC(C)(c3ccccc3)C2=O)c(=O)[nH]c1=O (stereo unspecified),.,.,-1,0.3,.,
CC1CCC2(CC1)Nc1ccccc1C(=O)N2c1ccccc1 (stereo unspecified),-15,-2,0,2.1,1%,
CC(C)Sc1nc2ccccc2n1CC(N)=O,-48,1,-6,1.5,2%,
COc1ccccc1N1C(=O)CC(Sc2nccc(C)n2)C1=O (stereo unspecified),-2,4,-7,1.5,66%,
COc1ccc(CCNC(=O)CCc2ccccc2)cc1OC,.,.,-10,1.6,.,
O=C(C1=C(O)C(=O)N(CCCN2CCOCC2)C1c1ccncc1)c1cc2ccccc2o1 (stereo unspecified),-10,4,.,5.3,5%,
Cc1cc(OCC(O)CN2CCc3ccccc3C2)ccc1Cl (stereo unspecified),.,.,4,4.8,.,
COc1ccc(C(=O)C(C)OC(=O)c2cccc(S(=O)(=O)Nc3cc(Cl)c(OC)cc3OC)c2)cc1 (stereo unspecified),-27,4,3,4.3,19%,
COc1ccc(O)c(/C=c2/sc3nc4cc(C)c(C)cc4n3c2=O)c1,-43,1,.,-4.0,-9%,
CC(C)(C)C(=O)Nc1ccccc1C(=O)Nc1cccnc1,-9,6,-8,-0.9,-15%,
CCCC[C@@H]1C[C@H]1[C@@H](NC(=O)c1cccs1)c1ccc(Cl)cc1,-30,10,5,3.8,-5%,
Cc1onc(-c2c(F)cccc2Cl)c1C(=O)N1CCc2ccccc2C1,-22,6,-9,4.2,-16%,
COc1ccc2cc(S(=O)(=O)N3CCCCCC3)ccc2c1,.,-3,54,3.0,-2%,
CCCn1cc(NC(=O)c2cc3n(n2)C(C(F)(F)F)CC(c2ccccc2)N3)cn1 (stereo unspecified),-13,1,-10,1.5,1%,
CS(=O)(=O)c1ccc(C(=O)NC2CCCc3ccccc32)cc1 (stereo unspecified),.,7,-2,0.4,-5%,
Cc1cc(C)c(C(=O)C[n+]2cccc(C(N)=O)c2)c(C)c1,.,.,-7,0.9,-7%,
Cc1ccc(N(CC(=O)NCc2ccc(F)cc2)C(=O)c2csnn2)c(C)c1,.,-8,-5,0.4,-1%,
Cn1cc(C(=O)N2CCOCC2)c2ccccc21,.,8,7,0.1,1%,
Cc1ccc(CN(C)C(=O)c2cc(COc3ccc(F)cc3Cl)on2)o1,.,-31,5,13,-1%,
Cc1ccc(-c2csc(NC(=O)Cn3[nH]c(=O)c4ccccc4c3=O)n2)cc1,.,-10,0,0.8,2%,
O=C(C1=C[C@@H](c2ccc(Br)cc2)C[C@@H](OCc2ccc(CO)cc2)O1)N1CCN(Cc2ccccc2)CC1,.,-17,0,12,14%,
CC1CCCCN1CC(O)COCc1ccccc1 (stereo unspecified),.,.,12,1.1,.,
Cc1onc(-c2ccccc2)c1C(=O)NC(=S)NNC(=O)c1ccc(O)cc1,-24,-28,46,5.6,76%,
O=C(Nc1ccc(N2CCOCC2)c(Cl)c1)c1cccc(-n2cnnc2)c1,.,.,1,0.7,.,
C=C(C)CN1CC[C@]23c4c5ccc(O)c4O[C@H]2c2[nH]c4ccccc4c2C[C@@]3(O)C1C5,.,-22,0,-4.0,13%&7%,
c1ccc(C2=NNC(c3ccco3)=Nc3ccccc32)cc1,.,3,1,.,2%,
CCOC(=O)c1sc(NC(=O)CSc2nc3c(c(-c4ccc(OC)cc4)c2C#N)CCCC3)c(C#N)c1C,-38,0,-10,-3.0,-2%,
COc1ccccc1NC(=O)Nn1cnnc1,-24,4,-10,-0.1,-6%,
Cc1ccc(NC(=O)NCC2CCN(Cc3cccc(Cl)c3)CC2)cc1Cl,.,0,32,5.0,12µM*,
CCOC(=O)c1[nH]c2ccc(Br)cc2c1NC(=O)CCN1CCC(C(=O)OCC)CC1,-11,7,2,4.3,-2%,
CCc1nnc(NC(=O)CC23CC4CC(CC(Br)(C4)C2)C3)s1,.,.,2,-0.7,.,
Nc1cc(N)nc(SCc2ccccc2)n1,-18,0,-2,2.0,-5%,
CSc1ccc(C(=S)N2CCCCCC2)cc1,.,.,-16,4.6,.,
CCN(CC)C(=S)Oc1ccc(Cl)cc1Cl,.,.,1,1.4,-8%,
Cc1nn(CCCC(=O)NCc2ccccc2)c(=O)c2nn(-c3ccccc3)c(C)c12,.,.,-1,-3.6,.,
Cc1nc(SCC(=O)NCc2ccco2)c2c(C)c(C)sc2n1,10,9,-6,0.3,-3%,
Cc1ccc(C2CC2C(=O)NN)cc1 (stereo unspecified),19,-6,-4,0.1,-4%,
COc1ccc(OCc2cc(C(=O)NC(C)Cn3cncn3)no2)c(Cl)c1 (stereo unspecified),.,.,?,1.1,.,
Cc1ccc(/C=[N+](/[O-])C2SC(=S)N(C)C2(C)C)cc1 (stereo unspecified),-25,-1,0,0.5,-5%,
COC(=O)C(C)Sc1nc2c(cnn2-c2ccccc2)c(=O)[nH]1 (stereo unspecified),-15,10,8,-1.8,1%,
COc1ccc(C(=O)c2c(-c3ccc(OC)cc3)oc3ccc(-c4cc(OC)c(OC)c(OC)c4)cc23)cc1,.,.,-2,-4.6,12%,
COc1ccc(N(CC(=O)Nc2ccc3c(c2)OCCO3)S(=O)(=O)c2c(C)nn(C)c2C)cc1,-31,-4,-3,-0.1,.,Arbovirus anti repeat=2
Cc1nc2ccccc2n1C(=O)c1cc(-c2ccc(Br)cc2)nc2ccccc12,-24,7,1,7.5,0%,
Cc1nonc1C1CCCN1Cc1nc(-c2ccc(F)cc2F)oc1C (stereo unspecified),.,-9,-8,2.2,-6%,
O=S(=O)(O/N=C1\CCCc2ccccc21)c1ccccc1,-15,-2,-1,-0.6,15%,
Cc1ccc(-c2csc3ncnc(OCC(=O)NC(=O)NCc4ccco4)c23)cc1,-27,-5,6,3.1,7%,

# Remaining list, next part:
SMILES,YopH PTP inh,Arbovirus anti,Mtb bLac sens,RecA intein inh,Mtb H37Rv,others
Cc1ccc(C)c(-n2c(-c3ccc(Br)cc3)csc2=NC(=O)c2ccccc2F)c1,.,.,6,3.1,3%,
CNC(=O)COC(=O)c1cccc(S(=O)(=O)N2CCN(c3ccc(F)cc3)CC2)c1,.,.,-2,-1.3,-4%,
N#CCCN(Cc1cccnc1)C(=O)Nc1ccccc1,-3,4,1,-1.1,-3%,
N#Cc1c(NC(=O)C2CCCO2)sc2c1CCCCCC2 (stereo unspecified),-19,9,-3,0.4,6%,
c1cncc(N=c2scc(-c3cccc4ccccc34)n2CCCn2ccnc2)c1,-25,4,77,21,45%,
COc1ccc(C2c3cc(OC)c(OC)cc3CCN2S(C)(=O)=O)cc1OC (stereo unspecified),.,-6,.,-0.1,-3%,
CCC(CC)C(=O)NC1CCSC1=O (stereo unspecified),-16,13,7,-0.2,0%,
CCN(CC)c1nc(-c2ccccc2)nc2c1sc(=S)n2CC,.,0,6,-1.4,2%,
Cc1nccn1CCOc1ccccc1Cl,.,.,7,-2.8,.,
C=CCNC(=S)Nc1ccc(Cl)cc1,.,9,0,-2.7,3%,
COc1cccc(CNCCNC(=O)c2nonc2N)c1,19,12,-5,4.0,-7%,
Cc1ccc(S(=O)(=O)N2CCC3(CC2)OCCO3)cc1,.,.,-1,-2.1,.,
Cc1cccc(CN2CCc3c(OCC(=O)NCc4ccco4)cccc3C2=O)c1,-11,-4,2,6.3,5%,
CCc1ccc2[nH]c(=O)c(C(c3nnnn3Cc3ccco3)N3CCC(C)CC3)cc2c1 (stereo unspecified),-23,16,9,1.3,2%,
O=C1c2cccc(OCc3ccc(F)cc3)c2CCN1Cc1ccc(F)cc1,-24,21,55,19,.,
CC1(C)Cc2nc3oc4c(=S)nc[nH]c4c3cc2CO1,-29,-3,-5,2.1,-11%,
CCOC(=O)c1c2c([nH]c(=S)c1C#N)CCCC2,.,.,4,5.6,-18%,
COc1ccccc1-n1cc([C@@H]2C[C@H]3CN(c4ccccc4)C(=O)[C@]34CCCN24)cn1,.,-13,-6,2.7,-2%,
COc1ccc(C(=O)C2CCCN(C(=O)C3CCOCC3)C2)c(C)c1 (stereo unspecified),.,-1,-1,-0.7,4%,
Cc1ccc(C(=O)C2=C(O)C(=O)N(Cc3ccco3)C2c2ccc(N(C)C)cc2)o1 (stereo unspecified),.,.,2,1.3,.,

# 6 compounds already listed, arranged by length of the SMILES, low to high:
SMILES,YopH PTP inh,Arbovirus anti,Mtb bLac sens,RecA intein inh,Mtb H37Rv,others
COc1cccc(CNCCNC(=O)c2nonc2N)c1,19,12,-5,4.0,-7%,
CCOC(=O)c1c2c([nH]c(=S)c1C#N)CCCC2,.,.,4,5.6,-18%,
Cc1ccc(S(=O)(=O)N2CCC3(CC2)OCCO3)cc1,.,.,-1,-2.1,.,
O=C1c2cccc(OCc3ccc(F)cc3)c2CCN1Cc1ccc(F)cc1,-24,21,55,19,.,
CCc1ccc2[nH]c(=O)c(C(c3nnnn3Cc3ccco3)N3CCC(C)CC3)cc2c1 (stereo unspecified),-23,16,9,1.3,2%,
COc1ccccc1-n1cc([C@@H]2C[C@H]3CN(c4ccccc4)C(=O)[C@]34CCCN24)cn1,.,-13,-6,2.7,-2%,

# Carrying on:
SMILES,YopH PTP inh,Arbovirus anti,Mtb bLac sens,RecA intein inh,Mtb H37Rv,others
Cc1cccc(NC(=O)Nc2cccc(C)n2)n1,-12,-6,-3,-0.2,-3%,
CCN(C(=O)c1cccc(S(=O)(=O)N(C)C)c1)C12CC3CC(CC(C3)C1)C2,.,.,4,0.3,.,
O=C(NC(=S)N1CCN(c2ccc(Cl)cc2[N+](=O)[O-])CC1)c1cccs1,-8,-38,52,18,?,
CCOc1ccccc1NC(=S)N1C2CCC1CC(NC(=O)NC13CC4CC(CC(C4)C1)C3)C2 (stereo unspecified),-8,-26,17,3.4,73%,
CC(C)[C@H](NC(=O)N1CCn2c1nc1ccccc12)C(=O)NCc1ccc(F)cc1,.,.,-5,1.1,.,
Cc1ccccc1CCNC(=O)Cn1nc(C)c2c(C)n(-c3ccccc3)nc2c1=O,.,.,-9,1.6,.,
COc1cc(C(=O)NCc2ccc(C(=O)NCC(OC)OC)cc2)cc(OC)c1OC,.,-1,2,0.8,-1%,
COc1ccccc1NC(=S)NNC(=O)c1ccccc1Br,-33,3,1,0.5,4%,
Cc1ccc(NC(=O)C(c2ccccc2)C2CCCC2)cc1 (stereo unspecified),-47,10,.,1.6,1%,
Cc1cccc(/C=N\Nc2nnc(-c3ccccc3)c(=O)[nH]2)c1,-22,-3,2,-0.7,5%,
O=C(CCCOc1ccccc1)N1CCN(S(=O)(=O)c2cccs2)CC1,-15,1,-3,1.4,-5%,
CCc1c(C)nc(SCC(=O)Nc2nc(-c3ccc(OC)cc3)cs2)[nH]c1=O,.,1,2,-1.1,-1%,
Cc1ccc(F)cc1NC(=O)Cc1nn(C)c(=O)c2ccccc12,6,2,-7,-34,1%,
COc1ccc(NC2CCCN(C(=O)c3ccc(CSC)o3)C2)cc1OC (stereo unspecified),.,.,-3,3.0,.,
O=C(COC(=O)c1ccc2c(c1)OCCO2)Nc1cc(Cl)ccc1Cl,-1,2,6,-0.7,0%,
CCOC(=O)c1c(C)[nH]c(C)c1S(=O)(=O)NCC1CCN(Cc2ccc(C)cc2)CC1,.,.,-5,-1.7,.,
CN(C)S(=O)(=O)c1ccc(Oc2ccccc2)cc1,-11,-7,3,3.1,-3%,
COC(=O)CC1COc2ccccc2N1C(=O)c1ccc(Cl)cc1 (stereo unspecified),-15,-1,0,2.6,-6%,
C=CCNc1nc(Nc2ccc(OC)cc2)nc(OC)n1,-33,-2,-3,4.6,-8%,
